# Screens: PubChem, National Center for Advancing Translational Sciences (NCATS)
# TRPML1 ag – activates the human TRPML1 channel; actives 0.12% (n = 410,000); Q9GZU1; TRPML1-expressing cells, Ca2+ dye fluorescence, FDSS; host cell line not named in the record; reference of the full effect not given here; activation, % (test concentration not listed); in the data active = activation above about 50%; inconclusive = about 30% to 50%; inactive = below about 30%; further: 0% is about no effect; the text of the record puts the active cut at 80%
# Target sequence (Q9GZU1 whole entry, looked up): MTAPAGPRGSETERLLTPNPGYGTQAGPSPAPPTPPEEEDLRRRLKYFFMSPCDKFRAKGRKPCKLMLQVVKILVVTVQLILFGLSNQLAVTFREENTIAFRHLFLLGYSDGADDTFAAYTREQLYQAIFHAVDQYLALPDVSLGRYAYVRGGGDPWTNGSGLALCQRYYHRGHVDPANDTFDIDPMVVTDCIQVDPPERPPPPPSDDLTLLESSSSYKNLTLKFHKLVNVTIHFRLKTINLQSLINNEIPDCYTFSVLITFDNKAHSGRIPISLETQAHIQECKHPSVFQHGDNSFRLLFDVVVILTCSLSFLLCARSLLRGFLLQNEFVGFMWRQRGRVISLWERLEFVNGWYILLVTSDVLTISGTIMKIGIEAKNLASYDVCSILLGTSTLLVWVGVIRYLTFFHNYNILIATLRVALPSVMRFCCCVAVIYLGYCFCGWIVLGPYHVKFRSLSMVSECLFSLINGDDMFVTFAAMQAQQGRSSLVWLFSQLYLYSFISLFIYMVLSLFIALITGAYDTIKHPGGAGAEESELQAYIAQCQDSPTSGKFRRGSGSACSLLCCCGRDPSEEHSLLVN
#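 Calcium fluorescence on an FDSS kinetic reader gave the read-out. Tet-induced TRPML1-DL cells were plated overnight, dye-loaded (Ca8 with quencher, 45-90 min, room temperature, dark), then read 110 s after compound addition, and again 110 s after 4uM final 54-4 (EC80).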
# Six1-Eya2 inh – Six1/Eya2 interaction inhibition; AlphaScreen GST-Six1/His-Eya2 binding, biochemical; active compounds read low; control for the full effect not named in the record; activity change, % (concentration not given with the values); actives 0.56% (n = 360,000); AID 651725; in the data active = activity change below about -65%; inconclusive = about -30% to -65%; inactive = above about -30%; further: on the % scale 0 is the no-effect control and ±100 the full control effect
#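 AlphaScreen luminescence read after one hour at 37 °C in darkness. Pin-transferred compounds met GST-Six1 and His-Eya2 protein (5X stock 250 nM/500 nM) plus glutathione donor and Ni-chelate acceptor beads (5X, 50 ug/mL).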
# TRPML1 inh – human mucolipin-1 channel inhibition. Q9GZU1. TRPML1-inducible cells, Ca2+ dye fluorescence, FDSS; active compounds read low; inhibition of EC80 agonist-evoked calcium signal. activity change, negative = inhibition, % (test concentration not listed). actives 0.02% (n = 390,000); in the data active means activity change below about -50%; inconclusive means about -30% to -50%; inactive means above about -30%;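 further: stimulus is agonist 54-4 at its EC80 concentration; on the % scale 0 is the no-effect control and ±100 the full control effect; compound concentration not given in the record; the text of the record puts the active cut at -80%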
#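 TRPML1-DL cells, Tet-induced overnight (~16 h, 37 °C) at 1,500 cells/well, were loaded with Ca8 no-wash dye plus quencher for 45-90 min at room temperature. Compounds were pinned during FDSS kinetic reading; agonist 54-4 at EC80 (4 uM final) then added.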
# D2 agonist – agonists of human D2 dopamine receptor (beta-arrestin); P14416; activation, % (no concentration beside the values); AID 624465; DiscoveRx PathHunter D2 beta-arrestin, luminescence, 90 min; 100% = 57 uM dopamine signal; actives 0.084% (n = 360,000); in the data active = activation above about 40%; inconclusive = about 15% to 40%; inactive = below about 15%; further: compound concentration not given in the record; the text of the record calls up to 30% inactive
# Target sequence (P14416 whole entry, looked up): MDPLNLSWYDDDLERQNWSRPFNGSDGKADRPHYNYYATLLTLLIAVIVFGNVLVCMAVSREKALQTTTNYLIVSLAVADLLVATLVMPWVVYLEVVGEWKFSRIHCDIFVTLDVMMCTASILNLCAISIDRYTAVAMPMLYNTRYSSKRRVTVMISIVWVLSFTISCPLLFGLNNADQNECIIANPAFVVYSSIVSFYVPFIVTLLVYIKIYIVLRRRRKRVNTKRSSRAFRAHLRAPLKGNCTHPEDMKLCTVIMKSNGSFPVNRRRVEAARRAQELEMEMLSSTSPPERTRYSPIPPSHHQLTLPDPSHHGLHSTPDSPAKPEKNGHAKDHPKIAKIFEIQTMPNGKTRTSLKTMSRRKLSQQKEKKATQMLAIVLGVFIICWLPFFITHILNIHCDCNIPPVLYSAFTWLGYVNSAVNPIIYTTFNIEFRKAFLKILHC
#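 Agonist mode: compounds alone added to overnight-plated D2 PathHunter cells for 90 min at 37 C, with 57 uM final dopamine (EC100) defining full response. Beta-arrestin recruitment detected by chemiluminescent reagent, read after 1 h at ambient temperature.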
# PINK1 modulator – PINK1 expression modulation | actives 0.2% (n = 410,000) | PINK1 immunofluorescence, high-content cytometry, 24 h | Potency, µM (top dose mostly 76.6 µM), for inactives: top-dose activation (PINK1 increase), most hits filed as activators | AID 624263; active = well fitted activation curve with a large enough effect; inconclusive = small, poorly fitted or top-dose-only effect; inactive = flat fitted curve, though single readings scatter; cell line not stated here;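 further: potency means the concentration at half of the fitted maximal effect; % of control where 0% means no effect; nearly all actives have a fitted effect of over 65% in size; a mitochondrial uncoupler was the plate control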
#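 PINK1 protein, normally rapidly degraded, was detected by immunofluorescence after 24 hour compound treatment of a stable cell line. Titration data (5 concentrations) came from laser-scanning cytometry, with CCCP-treated wells as controls.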
# D2 PAM – positive allosteric modulators of human D2 dopamine receptor. P14416. DiscoveRx D2 beta-arrestin cells, luminescence, 90 min; 100% = 57 uM dopamine signal. potentiation, % (no concentration beside the values). actives 0.23% (n = 360,000). AID 624464; active = potentiation of 50% or more; inconclusive = 30% to 50%; inactive = 30% or less;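 further: compound concentration not given in the record; tested on top of an EC20 dose of dopamine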
#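 PathHunter beta-arrestin assay in DiscoveRx D2 cells. Compounds were added with an EC20 of dopamine (50 nM final) for 90 min at 37 deg C. Luminescence was read 1 h after detection reagent, with 57 uM dopamine as the EC100 control.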
# Active calls of the source: *; ? = inconclusive; nt = no result given; & = joins results of further samples; [ ] = dose if it differs, or a comment.
SMILES,TRPML1 ag,Six1-Eya2 inh,TRPML1 inh,D2 agonist,PINK1 modulator,D2 PAM
CN(C)c1cccc(F)c1C(=O)NC(=O)Nc1ccc(Cl)cc1,2.0,8,-6,-3.6,1.3%,-29
O=C(NCc1cn2ccsc2n1)c1cccc(C(F)(F)F)c1,4.8,2,-3,-1.5,1.2%,-6
CCNC(=S)N1CCN(c2nc(-c3ccc(F)cc3)cs2)CC1,0.8,-11,50,-6.6,3.3%,-7
C=CCNc1oc(-c2cccs2)nc1C#N,0.2,-2,18,-3.7,-0.2%[38.3 µM],-9
COc1cccc(CNC(=O)Cn2nc(N3CCN(c4ccccc4OC)CC3)ccc2=O)c1,1.2,nt,1,nt,1.3%,nt
CCOC(=O)c1noc(C)c1C(=O)Nc1nc(C)cc(C)n1,-0.5,-2,7,-0.9,2.8%,0
CC(C(=O)Nc1cccc(S(=O)(=O)N2CCOCC2)c1)N1CCN(c2ccc(F)cc2)CC1 (configuration not stated),-0.6,-2,2,2.6,-0.4%,-5
CCN(CC)S(=O)(=O)c1ccc(S(=O)(=O)Nc2c(C)nn(C)c2C)cc1,1.0,4,33,-5.1,3.1%,-18
Cc1ccccc1C(=O)N1CCN(c2ccc(NC(=O)c3ccco3)cc2)CC1,-0.2,-8,10,-0.9,1.1%,-3
C=CC[C@@H](CC(=O)N[C@@H](CO)Cc1ccccc1)C(=O)N[C@H](COC(=O)[C@@H](CC=C)CC(=O)OC(C)(C)C)Cc1ccccc1,-1.0,-1,21,-2.7,?,-4
CSc1nc(-c2ccccc2)nn1S(=O)(=O)c1ccccc1,-0.8,-2,-2,-4.7,-0.2%,-14
COc1ccc2nc(N(Cc3cccnc3)C(=O)C3CCCCC3)sc2c1,1.6,nt,17,nt,9.0%,nt
Cc1cc2c(cc1C)CSC(c1ccccc1OC(=O)C(C)(C)C)SC2,-0.2,9,-15,1.8,2.8%,14
CCn1c(SCC(=O)N/N=C/c2ccccc2OCC(=O)O)nnc1-c1ccc(C(C)(C)C)cc1,0.7,12,-5,-3.6,1.0%,-6
COc1cc(C2CC(=O)Oc3cc4c(cc32)OCO4)cc(OC)c1OC (configuration not stated),-1.0,-1,-11,-0.1,0.4%,-5
N#Cc1cnc(SCC(=O)NNC(=O)COc2cccc3ccccc23)nc1N,-0.3,?,-1,0.3,2.0%,-7
CC1CCN(C(=O)CSc2nnc(Cc3ccccc3)o2)CC1,-0.1,8,-17,-1.1,1.8%,-6
CCc1nn(-c2ccccc2)c2nc(-c3cccc(OC)c3)c3cc(OC)c(OC)cc3c12,-0.1,nt,21,nt,1.0%,nt
COc1ccc(C(=O)Nc2nc3cc4c(cc3s2)OCO4)c(OC)c1,1.8,-6,-8,-1.3,7.1%,4
CCOc1ccc2[nH]c3c(=O)n(CCC4=CCCCC4)cnc3c2c1,0.8,0,12,-0.8,2.5%,0
CCn1c(SCC(=O)Nc2ccccc2Br)nnc1-c1cnccn1,-0.7,-1,8,-5.0,-0.8%,6
Cc1cc(OCC(=O)NCCCn2ccnc2)c2c(C)c(C)c(=O)oc2c1,-0.7,-10,-5,-0.2,0.1%,-2
CCCC(=O)Nc1ccc2c(c1)nc1n2CCOC1,-0.1,1,-10,-1.1,-1.2%[38.3 µM],-4
Cc1ccsc1CNn1cnnc1SCc1ccccc1F,0.5,4,4,-2.6,1.3%[38.3 µM],5
COC(=O)c1ccc(NC(=O)COc2ccc(N(C)S(=O)(=O)c3ccc(C)cc3)cc2)cc1,2.2,0,14,6.0,0.7%,8
CCc1ccc(NC(=O)CCc2c(C)n(C)c3cc(-c4ccccc4C)nn3c2=O)cc1,-0.8,nt,-2,nt,0.1%,nt
C[C@@H]1CN([C@@H](C)CO)S(=O)(=O)c2ccc(Br)cc2O[C@H]1CN(C)Cc1ccc(-c2ccccc2)cc1,1.0,19,-4,1.4,7.1%,-6
CC(=O)Nc1cccc(-c2ccnc3c2CC(C(=O)NCc2ccco2)O3)c1 (configuration not stated),0.8,-7,32,-2.0,11%,-7
O=C(COC(=O)CCNS(=O)(=O)c1cccs1)Nc1ccccc1,-0.5,-4,11,-6.2,0.2%,-8
CCOC(=O)N(Cc1ccccc1)C1CC1,-0.4,22,6,-0.7,1.4%,-10
CC(C)[C@H](NC(=O)OCc1ccccc1)C(=O)OCC(=O)NCc1ccco1,-1.2,-13,-9,0.1,1.3%,-7
CCNC(=O)C1CCCN(C(=O)c2c(-c3ccccc3)noc2C)CC1 (configuration not stated),-0.6,1,nt,-1.4,0.9%,0
O=C(NNC(=O)c1ccccc1C(=O)O)c1ccc(S(=O)(=O)N2CCCCC2)cc1,0.1,1,3,-1.5,-0.3%,0
Nc1c(S(=O)(=O)c2ccccc2)c2nc3ccccc3nc2n1/N=C/c1ccco1,-0.1,?,15,-1.9,?,20
CCn1c(=O)cc(SCC(=O)N2CCN(c3cc(C)ccc3C)CC2)c2ccccc21,0.7,nt,6,nt,2.7%,nt
Cc1cc(C(=O)NC2CC2)c2ccccc2n1,-0.4,0,9,-3.6,0.9%,-6
CCOC(=O)c1ccc(NC(=O)c2c(NCc3cccc(OC)c3OC)sc3c2CCC3)cc1,-0.8,nt,-19,nt,0.4%,nt
COc1ccc(-c2nnc3ccc(SCC(=O)N4CCCCCC4)nn23)cc1OC,-1.5,-26,-3,-7.2,1.0%,-5
CC(NC(=O)C(=O)N1CCCCC1)C(c1cccs1)N1CCN(Cc2ccccc2)CC1 (configuration not stated),-0.6,-4,4,-1.4,0.9%,-12
COc1cccc(N2[C@@H](CC(C)=O)c3ccccc3S2(=O)=O)c1,-0.6&-1.2,0,-10,-2.6,0.6%,-9
O=C(Nc1ccc(Br)cc1)c1cccc(S(=O)(=O)Nc2cnc3ccccc3c2)c1,1.0,-4,7,2.8,?,-7
CC1=NN(C(=O)c2ccc(C)cc2)C(O)(C(F)(F)OC(F)(F)F)C1 (configuration not stated),-1.1,-1,-3,-1.6,-0.5%,-16
O=c1cc(CN2CCN(S(=O)(=O)/C=C/c3ccccc3)CC2)c2ccc(O)cc2o1,1.3,0,-9,1.7,-1.6%,-7
CCOC(=O)OC(C)OC(=O)[C@@H]1N2C(=O)[C@@H](NC(=O)[C@H](N)c3ccccc3)[C@H]2SC1(C)C (some centres not stated),-0.4,-5,-9,1.9,0.6%,1
CC(C)C[C@H]1CN(CCCC[C@H]2CNC(=O)C(=O)N2CC2CCCCC2)C(=O)C(=O)N1CC1CCCCC1,-0.8,0,nt,nt,2.9%,nt
COCCn1c(SCC(=O)Nc2cc(C)cc(C)c2)nc2ccccc2c1=O,nt,29,nt,-0.7,6.8%,4
Cc1cccn2c(=O)c3cc(C#N)c(=NC(=O)c4ccccc4)n(Cc4ccco4)c3nc12,3.6&2.7,?,10&-9,-2.3&-5.4,1.1%&-0.5%,-12&-8
O=C(O)/C(=C\c1ccc(Cl)cc1)c1ccc(F)cc1,0.3,14,?,-1.8,-0.1%,-7
COc1ccc(-c2cc(C(F)(F)F)n3nc(C(=O)N4CCCCC4)cc3n2)cc1OC,2.4,7,22,-3.9,1.6%,-7
COc1ccc(S(=O)(=O)N(Cc2cc3ccc(OC)cc3[nH]c2=O)CC2COCCO2)cc1 (configuration not stated),0.1,-6,-6,-4.7,-2.5%,-29
Cc1ccccc1NC(=O)CN1C(=O)N/C(=C\c2ccccc2OCc2ccc(C(=O)O)cc2)C1=O,0.4,?,10,1.6,1.5%,-5
O=C(CSc1n[nH]c(-c2ccc(F)cc2)n1)N1CCN(c2ccc(F)cc2)CC1,0.7,nt,-19,nt,-0.7%,nt
COc1cccc(NC(=O)/C(C#N)=C/c2ccc(-c3ccc(C)cc3)o2)c1,?,nt,9,nt,20%,nt
O=C(COC(=O)c1cccc(S(=O)(=O)N2CCOCC2)c1)Nc1ccc(Cl)cn1,0.2,-8,3,-2.5,2.7%,-1
CCN(CC)c1ccc(C=C(c2nnnn2-c2ccc(C)cc2)c2nnnn2-c2ccc(C)cc2)cc1,5.2,-2,-20,-7.1,6.6%,-5
COc1ccc(S(=O)(=O)N2CCN(C3CCCCCCC3)CC2)cc1,0.3&0.7,-8&15,12&13,-1.2&-7.3,0.4%&-0.3%,-1&-5
CC(=O)c1c(N2CCCC2)nc(=S)n(-c2ccccc2)c1C,0.3,1,-13,-1.9,nt,9
CC(=O)c1ccc(NC(=O)C(C)OC(=O)/C=C/c2ccco2)cc1 (configuration not stated),-0.9,-4,-13,1.6,10%,-4
C/C(=N\NS(=O)(=O)c1ccc(C)cc1)c1ccc(C)s1,1.2,-5,-2,0.2,nt,-30
O=C(Nc1nccs1)C1CC(=O)N(CCc2ccccc2)C1 (configuration not stated),0.2,-5,4,-4.0,-0.2%,0
c1cncc(CNc2nc(-c3cccnc3)nc3ccccc23)c1,1.5,?,21,-2.6,1.7%&0.4%,-8
CCC(=O)OCCNc1nc(-c2ccccc2)nc2ccccc12,2.3,4,28,-0.6,-0.5%,-4
CC#CCN1C=C(C(=O)OCC)C(C)N(Cc2ccc(Br)cc2)S1(=O)=O (configuration not stated),-0.7,-16,5,-3.0,5.5%,-8

# Eleven successive records from above, quoted:
SMILES,TRPML1 ag,Six1-Eya2 inh,TRPML1 inh,D2 agonist,PINK1 modulator,D2 PAM
COc1ccc(-c2cc(C(F)(F)F)n3nc(C(=O)N4CCCCC4)cc3n2)cc1OC,2.4,7,22,-3.9,1.6%,-7
COc1ccc(S(=O)(=O)N(Cc2cc3ccc(OC)cc3[nH]c2=O)CC2COCCO2)cc1 (configuration not stated),0.1,-6,-6,-4.7,-2.5%,-29
Cc1ccccc1NC(=O)CN1C(=O)N/C(=C\c2ccccc2OCc2ccc(C(=O)O)cc2)C1=O,0.4,?,10,1.6,1.5%,-5
O=C(CSc1n[nH]c(-c2ccc(F)cc2)n1)N1CCN(c2ccc(F)cc2)CC1,0.7,nt,-19,nt,-0.7%,nt
COc1cccc(NC(=O)/C(C#N)=C/c2ccc(-c3ccc(C)cc3)o2)c1,?,nt,9,nt,20%,nt
O=C(COC(=O)c1cccc(S(=O)(=O)N2CCOCC2)c1)Nc1ccc(Cl)cn1,0.2,-8,3,-2.5,2.7%,-1
CCN(CC)c1ccc(C=C(c2nnnn2-c2ccc(C)cc2)c2nnnn2-c2ccc(C)cc2)cc1,5.2,-2,-20,-7.1,6.6%,-5
COc1ccc(S(=O)(=O)N2CCN(C3CCCCCCC3)CC2)cc1,0.3&0.7,-8&15,12&13,-1.2&-7.3,0.4%&-0.3%,-1&-5
CC(=O)c1c(N2CCCC2)nc(=S)n(-c2ccccc2)c1C,0.3,1,-13,-1.9,nt,9
CC(=O)c1ccc(NC(=O)C(C)OC(=O)/C=C/c2ccco2)cc1 (configuration not stated),-0.9,-4,-13,1.6,10%,-4
C/C(=N\NS(=O)(=O)c1ccc(C)cc1)c1ccc(C)s1,1.2,-5,-2,0.2,nt,-30
